Ecoli growth = blocks Escherichia coli growth; OD600, 23 h; active compounds read low; OD600 absorbance (concentration not given with the values); 330,000 compounds, 0.21% hits; AID 1053175;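 active = OD600 absorbance below the run mean of sample wells minus 3.6 SD, in any replicate, cut at about 0.56 in these data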;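 note: stock transfer was 300 nL into about 60 µL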
Beta2AR agonist = human beta-2 adrenergic receptor agonism by FAP. Am2.2-beta2AR cells, FAP receptor internalization, flow cytometry; reference of the scale not given here. response, % (test concentration not listed). 340,000 compounds, 0.43% hits;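 active = response above a set limit, near 3 SD of response in nonfluorescent compounds, cut at about 42% in these data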;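 note: stock transfer was 100 nL into about 11 µL; a reference agonist was the positive control; negative values mostly stem from fluorescent compounds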
HNF4A DNA FP = change in binding of human HNF4 alpha to DNA; activity change, % at 10 µM; P41235; 360,000 compounds, 0.3% hits; HNF4a-FITC DNA binding, fluorescence polarization, 1 h; in the data active = activity change above about 30%, passing the limit was not always enough;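 note: controls were the assay level and a saturating level of protein; the project sought stronger binding though the title names inhibitors; some compounds called inactive have numbers as strong as hits; positive values seem to mean higher polarization but the record does not say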
FGF22 binding = binders of recombinant human FGF22 by thermal shift; SYPRO orange fluorescence; percent of sucrose octasulfate shift, DMSO zero; calls only at 9.99 µM; 340,000 compounds, 1.5% hits; AID 651658;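 active = melting point raised past a set limit in the mean and every replicate; three in four hits are not shown here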
Target sequence (Q9HCT0 whole entry, looked up): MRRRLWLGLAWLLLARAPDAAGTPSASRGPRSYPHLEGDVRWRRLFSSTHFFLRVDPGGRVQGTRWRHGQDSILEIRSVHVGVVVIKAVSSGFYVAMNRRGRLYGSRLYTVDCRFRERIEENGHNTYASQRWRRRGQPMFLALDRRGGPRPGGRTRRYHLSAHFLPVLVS
UCH37 inh = inhibitors of human deubiquitinating enzyme UCH37; purified proteasome/UCH37, Ub-AMC cleavage fluorescence; inhibition, % (concentration not given with the values); 330,000 compounds, 0.33% hits;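 active = mean of two replicates above 20%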;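 note: 0% = compound-free wells with enzyme and 100% = wells lacking proteasome; stock transfer was 100 nL into about 20 µL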
Target sequence (Q9Y5K5 whole entry, looked up): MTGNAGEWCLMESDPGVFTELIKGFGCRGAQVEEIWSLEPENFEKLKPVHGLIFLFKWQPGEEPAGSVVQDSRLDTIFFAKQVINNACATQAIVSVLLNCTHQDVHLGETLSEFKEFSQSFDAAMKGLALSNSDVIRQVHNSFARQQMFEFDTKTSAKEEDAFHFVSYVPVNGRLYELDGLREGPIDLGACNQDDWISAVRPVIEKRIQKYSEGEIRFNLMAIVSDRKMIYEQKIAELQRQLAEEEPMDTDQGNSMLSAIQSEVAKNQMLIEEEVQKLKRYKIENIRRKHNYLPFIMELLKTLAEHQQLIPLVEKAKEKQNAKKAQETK
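Assay system: Proteasome-bound UCH37. Buffer or medium: pH 7.4 Tris-HCl (50 mM) with ovalbumin, ATP-MgCl2, DTT. Incubation: 30 min preincubation with enzyme, 25 min cleavage at room temperature. Measured by: fluorescence, ex 355 nm, em 460 nm. Read-out basis: percent inhibition. Control set: wells without proteasome as full block, compound-free enzyme plus substrate as uninhibited.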
LANA-H2A inh = blocks KSHV LANA binding to histone H2A/H2B. inhibition, % (test concentration not listed). 320,000 compounds, 0.6% hits. cell-free LANA-H2A/H2B peptide, fluorescence polarization. Q9QR71. AID 2629; in the data active = inhibition mostly above about 10%, no sharp cut-off; inactive = mostly below about 6.7%;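 note: stock transfer was 7.5 nL into about 10 µL; 0% = median of vehicle wells and 100% = median of positive control wells; one replicate is shown; the record names a cut of 25% in any replicate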
ALR H2O2 inh = blocks human ALR sulfhydryl oxidase activity; inhibition, % (concentration not given with the values); 290,000 compounds, 3.8% hits; purified ALR, DTT oxidation, H2O2 HRP-luminol luminescence;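 active = mean and each replicate at 75% or more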;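 note: stock transfer was 7.5 nL into about 7.5 µL; 0% = neutral wells and 100% = wells with inactivated enzyme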
Target sequence (P55789 whole entry, looked up): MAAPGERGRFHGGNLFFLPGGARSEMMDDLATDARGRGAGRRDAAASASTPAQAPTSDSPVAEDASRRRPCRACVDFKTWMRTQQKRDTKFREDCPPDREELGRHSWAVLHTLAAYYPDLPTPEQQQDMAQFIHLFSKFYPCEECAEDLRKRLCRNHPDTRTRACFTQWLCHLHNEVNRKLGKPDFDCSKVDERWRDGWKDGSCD
Starred values were filed as active, the others as inactive; i = inactive; . = no result given. The list is partial; the hit share may differ from the screen's.

SMILES	Ecoli growth	Beta2AR agonist	HNF4A DNA FP	FGF22 binding	UCH37 inh	LANA-H2A inh	ALR H2O2 inh
O=C(Cc1ccccc1)Oc1cccc(-n2cnnn2)c1	0.709	2.2	3.6	i	4.5	4.4	97.9*
COc1ccccc1OCC(=O)N1CCCC(N(C)Cc2ccccc2)C1 (stereo not given)	0.657	7.8	-5.5	i	1.4	3.4	-3.1
c1ccc(C2CC3CC(c4ccco4)N2O3)cc1 (stereo not given)	0.717	-2.2	-1.2	.	-1.9	4.2	.
COC(=O)C1=C(c2ccc(OC)c(OC)c2)C[C@@H]2CC[C@H]1N2C(=O)N1CCc2cc(OC)c(OC)cc2C1	.	-4.3	-1.5	i	9.5	2.3	-2.0
O=c1[nH]c(=S)n(CCC2=CCCCC2)c(O)c1C=NCc1cccnc1	0.606	4.4	4.2	.	3.4	-0.6	-20.1
O=C(CF)NC(NC(=S)Nc1ccccc1O)C(Cl)(Cl)Cl (stereo not given)	.	-57.6	1.5	.	.	-0.9	52.2
CN(C(=O)CN1CC=C(c2ccccc2)CC1)c1c(N)n(Cc2ccccc2)c(=O)[nH]c1=O	0.712	-3.1	0.2	i	0.4	-7.4	-2.5
O=C(COC(=O)c1ccc(O)cc1)Nc1ccc(Cl)cc1C(=O)c1ccccc1	0.632	-9.0	-3.9	i	1.4	-3.3	96.1*
CCOC(=O)CCN=Cc1c(O)n(-c2ccc(Br)cc2)c(=O)[nH]c1=O	0.718	2.7	1.9	.	-1.1	-1.6	-1.2
CCOCC(=O)NC1CCSC1=O (stereo not given)	0.669	-7.7	0.3	.	5.1	-5.5	-9.4
CCn1cc(C(=O)NCc2ccccc2)c2ccccc21	0.723	5.3	4.8	.	2.4	.	.
Cc1cc(CN(C)C)c(OC(=O)N(C)C)cc1C	0.797	-2.9	-0.8	.	-2.2	-3.5	-10.8
CCCCC(=O)N/N=C/c1c(O)n(CCc2ccc(OC)c(OC)c2)c(=O)[nH]c1=O	0.671	4.1	-2.4	i	1.6	1.5	-14.9
CNC(=S)N/N=C1\C2CN3CCN(C2)CC1(c1ccccc1)C3	.	14.8	0.1	.	.	2.0	10.9
CCOC(=O)c1c(NC(=O)c2c(N)n(CCCOC)c3nc4ccccc4nc23)sc2c1CCCC2	0.698	4.0	5.0	i	3.1	-4.6	-6.5
O=C(c1cccnc1)c1cc2ccccc2[nH]1	0.667	-5.8	-0.9	.	5.4	-0.7	1.5
Cc1c(N=Nc2c(O)n(C)c(=O)n(C)c2=O)c(=O)n(-c2ccccc2)n1C	0.677	-6.0	0.0	i	3.4	3.2	17.5
COC1C(O)C(C)OC(OC2C(Oc3cccc4c(O)c5c(=O)oc6ccc(C)c7c(=O)oc(c34)c5c67)OC(C)C(O)C2O)C1O (stereo not given)	.	-224.2	4.5	i	.	.	.
COc1cc(Cn2c(N)c(C(=O)NCc3ccco3)c3nc4ccccc4nc32)cc(OC)c1OC	0.696	-5.0	-0.1	.	-391.9	1.4	.
CCN(CC)C(=O)c1ccc(NC(=O)c2cccc(C(F)(F)F)c2)cc1	0.7	3.3	1.4	i	1.6	-1.6	-14.4
Fc1cccc(C2NCCc3[nH]cnc32)c1 (stereo not given)	0.704	-13.4	2.3	.	1.7	-0.9	44.4
CN(C)CCOC(=O)c1cn(Cc2ccccc2)c2ccccc12	0.74	15.6	-2.8	.	2.9	-4.9	-3.1
CC(=O)Nc1ccc([As](=O)(O)c2ccc([N+](=O)[O-])cc2)cc1	0.668	-8.0	-0.2	i	-2.4	-2.6	-4.8
CCOc1ccc(-n2c(O)c(C=Nc3ccc(N(CC)CC)cc3)c(=O)[nH]c2=O)cc1	0.735	3.4	5.4	.	-1.2	1.7	-0.8
O=S(=O)(c1ccccc1)N1CC1c1ccccc1 (stereo not given)	0.638	6.9	-1.6	.	-1.0	0.3	3.5

Continuation:
SMILES	Ecoli growth	Beta2AR agonist	HNF4A DNA FP	FGF22 binding	UCH37 inh	LANA-H2A inh	ALR H2O2 inh
Cc1c(C(c2ccc(Cl)cc2Cl)c2c(O)c3ccccc3oc2=O)c(=O)n(-c2ccccc2)n1C (stereo not given)	0.699	-2.2	-0.1	i	5.9	-1.8	-18.6
OC(c1cccc(Cl)c1)(c1cccc(Cl)c1)C1CN2CCC1CC2 (stereo not given)	0.678	59.1*	1.3	i	0.4	-0.4	0.8
Cc1ccc(OCC(=O)N2CCN(C3CCC(c4ccccc4)CC3)CC2)cc1 (stereo not given)	0.681	3.6	4.5	i	6.1	-2.9	0.6
COCc1cc(OC(=O)N(C)C)nc(-c2ccc(C)c(Cl)c2)n1	0.705	0.7	5.3	i	3.8	2.7	-0.6
Cn1c(=O)c2nncnc2n(C)c1=O	0.672	2.0	-2.8	.	2.1	6.5	-4.5
COc1cccc(-c2nn(Cc3ccccc3)cc2C(=O)O)c1	0.696	-0.6	-2.8	i	2.5	-1.4	-70.0
CC#CP(=O)(OC)C(O)(CF)c1ccccc1 (stereo not given)	0.67	6.2	-3.5	.	-0.2	0.3	-2.7
C[C@@H]1CC[C@@]2(NC1)O[C@H]1C[C@H]3[C@@H]4CC=C5C[C@@H](O)CC[C@]5(C)[C@H]4CC[C@]3(C)[C@H]1[C@@H]2C	0.683	-5.6	-0.9	.	0.8	0.6	-9.5
CCCn1c(C(=O)c2ccccc2)nc2ccccc21	.	-13.5	-1.4	i	.	0.1	-1.3
C[C@]12CCC(=O)C=C1CC[C@@H]1[C@@H]2CC[C@@]2(C)[C@H]1CC[C@]2(C)O	0.636	2.6	1.8	i	1.4	.	.
O=P(c1ccccc1)(c1ccccc1)N1CCCCC1	0.652	-5.5	1.7	.	4.8	0.4	0.2
O=S(=O)(NC1CCCC1)OCC(Cl)(Cl)Cl	0.711	6.0	-1.8	i	1.1	2.3	-4.3
Nc1ccncc1	0.712	4.1	-4.0	i	1.9	-3.3	-2.6
CCCCC1(CC)COP(=O)(OCC(Cl)(Cl)Cl)OC1 (stereo not given)	0.694	11.3	-0.4	.	1.1	.	.
CC1=CC2OC3CC4OC(=O)C=CC=CC(=O)OCCC(C)C(O)C(=O)OCC2(CC1)C4(C)C31CO1 (stereo not given)	.	11.3	3.1	i	.	.	.
O=C(NC(=S)N1C[C@H]2C[C@H](C1)c1cccc(=O)n1C2)c1ccc(F)cc1	0.7	-0.5	-1.5	i	6.0	-6.2	10.2
COc1ccc(C(=O)Cn2c(NCCCl)nc3ccccc32)cc1	0.675	-5.5	-0.5	i	2.4	0.5	9.5
Cn1c(O)c(/C=N/c2ccccn2)c(=O)n(C)c1=O	0.722	-11.4	-1.2	i	14.5	0.8	-11.0
COC(=O)c1ccccc1OP1(=O)COc2ccccc2OC1	0.679	16.9	2.3	.	6.5	0.7	99.2*
CC(C)(C)C(=O)OCC12CCC(O1)C1(C)C(=O)OCC21 (stereo not given)	0.669	3.0	-0.9	i	6.8	2.8	-10.2
CN(C)C(=O)CSc1nnc([C@@H](N)Cc2ccccc2)o1	0.683	3.1	-0.6	.	1.7	-0.7	0.0
COc1ccc(CN2Cc3cnnn3-c3ccccc3C2C#N)cc1 (stereo not given)	.	21.0	-1.3	i	.	.	.
Cc1ccc(S(=O)(=O)N(C)C/N=C(\N)N[N+](=O)[O-])cc1	.	-6.9	-0.4	i	.	1.7	-3.6
CC(=O)OC1CC(OC2C(O)CC(OC3C(O)CC(OC4CCC5(C)C(CCC6C5CCC5(C)C(C7=CC(=O)OC7)CCC65O)C4)OC3C)OC2C)OC(C)C1OC1OC(CO)C(O)C(O)C1O (stereo not given)	.	6.8	-1.2	i	.	.	.
CN1CCN(Cc2nnc3n2-c2ccc(Cl)cc2C(c2ccccc2)=NC3)CC1	0.673	-8.7	0.4	i	-2.1	6.1	-2.1

(listing goes on)
SMILES	Ecoli growth	Beta2AR agonist	HNF4A DNA FP	FGF22 binding	UCH37 inh	LANA-H2A inh	ALR H2O2 inh
CC(O)(CS(=O)(=O)c1cccc(C(F)(F)F)c1)C(=O)Nc1ccc(C(F)(F)F)cc1 (stereo not given)	0.625	-6.3	-2.9	i	2.6	0.9	-3.8
Cc1ccc(C)c(OCC(=O)N2CCCN(C)CC2)c1	0.613	1.0	-3.2	i	0.7	-2.5	2.5
CCCn1c(C)c(C(=O)c2cccc3ccccc23)c2ccccc21	0.656	18.8	-1.3	i	1.7	-2.2	-49.6
OC(c1ccccc1)(c1ccccc1)c1ccncc1	0.7	16.2	-0.6	i	3.4	3.5	-12.7
Cc1cccc(-n2c(-c3ccco3)nc3ccccc3c2=O)c1C	0.711	-2.1	-2.7	i	5.6	13.2	-0.6
O=C(O)c1cc(Oc2ccc(C(F)(F)F)cc2Cl)ccc1[N+](=O)[O-]	.	-9.1	1.3	i	.	-2.6	0.1
CC(=O)OC(C)(C)/C=C/C(=O)C(C)(O)C1[C@H](O)C[C@@]2(C)C3CC=C4C(CC[C@@H](O)C4(C)C)[C@]3(CO)C(=O)C[C@]12C (stereo not given in full)	0.699	51.7*	-6.0	i	3.0	-2.3	1.8
O=C1Nc2ccccc2C1Cc1nc2ccccc2c(=O)n1-c1ccccc1 (stereo not given)	0.701	-1.5	1.4	i	-1.2	-1.0	.
O=C1Nc2ccccc2/C1=C/c1cnc[nH]1	0.591	9.7	-1.6	i	12.7	5.5	-4.4
Cc1ccc(NC(=O)CSc2nnc([C@@H](N)Cc3c[nH]c4ccccc34)o2)c(C)c1	0.693	-0.2	3.7	.	3.7	-2.4	97.7*
COc1c(C=C2C(=O)NC(=O)NC2=O)c(CCN(C)C(=O)c2ccccc2)cc2c1OCO2	0.71	-3.1	2.5	i	5.8	-2.8	96.4*
Cc1cccc(-c2nc3ccccc3c(=O)n2-n2cccc2)c1	0.764	-4.1	0.3	.	1.1	3.7	16.8
Cc1ccc(-c2nc3ccc(C)cn3c2CC(=O)N(C)C)cc1	0.689	-5.8	2.6	i	-13.7	1.5	1.0
O=C1NC(=O)C(CCOc2ccccc2)(CCc2ccccc2)C(=O)N1	0.699	-9.1	0.1	i	1.5	.	.
O=C1NC(=O)N(Cc2ccco2)C(=O)/C1=C/c1ccc(-c2cccc([N+](=O)[O-])c2)o1	0.677	34.0	-24.1	.	7.6	6.0	54.4
CC(C)(C)c1ccc(S(=O)(=O)N2CC3CC(C2)c2cccc(=O)n2C3)cc1 (stereo not given)	0.735	5.8	-1.4	i	2.4	0.1	-1.4
CC(=NCCc1ccccc1)c1c(O)[nH]c(=O)[nH]c1=O	0.636	1.5	-2.0	i	6.0	7.1	-1.4
N#Cc1ccc(NC(=O)CN2CCCC2)cc1Cl	0.717	-2.6	1.2	i	3.5	-0.7	-4.7
CCC(NC(=O)OC(C)(C)C)C(=O)Oc1cc(C)cc2oc(=O)c3c(c12)CCC3 (stereo not given)	0.696	2.1	-1.4	.	-1.3	3.0	5.7
CCOC(=O)c1c(C)n(CC(O)CN2CCOCC2)c2cc(Br)c(OC)cc12 (stereo not given)	0.687	4.5	1.3	i	5.7	-3.2	-8.8
CC[C@H]1CC2CN3CCc4c([nH]c5ccccc45)C(C(=O)OC)(C2)C13 (stereo not given in full)	0.692	.	4.3	.	3.4	-0.4	.
O=C(/C=C/c1ccc(O)c(O)c1)OC1C(O)CC(OC(=O)/C=C/c2ccc(O)c(O)c2)(C(=O)O)CC1O (stereo not given)	0.675	5.2	-1.4	i	12.1	-0.2	98.7*
Cc1c(C=O)c2ccccc2n1Cc1cccc(F)c1	0.697	0.7	0.7	.	-1.6	-2.2	0.7
N#CC(C#N)=C(C#N)c1ccc(Nc2ccccc2)cc1	0.66	14.4	1.3	i	1.0	1.7	41.2
COC(=O)C1=C(c2ccc(F)cc2OCc2ccccc2)C[C@@H]2CC[C@H]1N2C(=O)NCCOc1ccccc1Cl	.	9.7	1.5	i	-0.4	1.7	0.5
